# Cruzain inh noDet: inhibitors of Trypanosoma cruzi cruzain without detergent; 2.3% of 200,000 active; P25779; Potency, µM, for the others: max response, negative = inhibition, most hits filed as inhibitors; purified cruzain, Z-FR-AMC fluorescence, no detergent; AID 1476;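 further: plate controls were enzyme without inhibitor for no effect and buffer without enzyme for full effect; nearly all actives have a fitted effect of over 40% in size; top concentration of the series not given in the record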
# Target sequence (P25779 123-467 limits assumed): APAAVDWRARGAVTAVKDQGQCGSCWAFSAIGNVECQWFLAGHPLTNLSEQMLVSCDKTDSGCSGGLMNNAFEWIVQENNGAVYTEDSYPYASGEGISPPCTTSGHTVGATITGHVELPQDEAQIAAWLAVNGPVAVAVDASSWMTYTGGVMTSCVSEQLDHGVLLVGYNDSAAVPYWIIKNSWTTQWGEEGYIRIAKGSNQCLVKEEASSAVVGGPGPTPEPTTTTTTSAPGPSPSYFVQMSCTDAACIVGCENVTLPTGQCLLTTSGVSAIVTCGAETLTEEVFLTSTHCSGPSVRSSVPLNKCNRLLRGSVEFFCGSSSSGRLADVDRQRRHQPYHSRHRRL
#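 Purified cruzain at 1.5 nM, pre-incubated 15 min with compound at room temperature in 100 mM sodium acetate pH 5.5, 5 mM DTT, 0.00005% Triton X-100. Reaction started with 2 uM Z-FR-AMC; AMC fluorescence increase over 60 s gives rate.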
# Lassa entry inh: inhibitors of Lassa virus binding or cell entry; 1.2% of 300,000 active; Potency, µM (titrated, usually from 37.9 µM), for the others: top-dose activity change, negative = inhibition, hits mostly inhibitors; AID 540256; Lassa virus pseudotype entry inhibition, cell reporter; control for the full effect not named in the record; active means well fitted inhibition curve with a large enough effect; inconclusive means small, poorly fitted or top-dose-only effect, or effect the other way; inactive means flat fitted curve, though single readings scatter; tested in HEK293 cells; further: on the % scale 0 is the no-effect control and ±100 the full control effect; nearly all actives have a fitted effect of over 50% in size; luciferase read-out
# RE007 growth inh: less growth of the S. pombe RE007 Vpr strain | S. pombe RE007 Vpr strain, BacTiter-Glo ATP luminescence, 24 h; control for the full effect not named in the record | Potency, µM (doses to about 92.2 µM), without a hit: at the highest dose activity change, negative = less growth | 0.21% of 360,000 active; active = well fitted falling curve with a large enough effect; inconclusive = small, poorly fitted or top-dose-only effect; inactive = no such curve, though single readings can be large or run the other way;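 further: on the % scale 0 is the no-effect control and ±100 the full control effect; nearly all actives have a fitted effect of over 50% in size; the assay follows cell death caused by Vpr and the record does not say whether a fall means rescue or toxicity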
#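 Fission yeast RE007 carrying one integrated HIV-1 vpr copy, seeded at OD 0.01 in PMG+AL medium with 23 nL pinned compound. Grown 24 h at 30 degrees; viability read by BacTiter-Glo luminescence after 5 min.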
# NS1 inh: inhibitors of influenza NS1 protein function. 0.4% of 270,000 active. Potency, µM (top dose mostly 46.1 µM), for inactives: top-dose activity, positive = more growth. AID 2326. S. cerevisiae slowed by influenza A NS1, growth recovery by OD600; active means well fitted rising curve with a large enough effect; inconclusive means small, poorly fitted or top-dose-only effect; inactive means no such curve, though single readings can be large or run the other way; further: nearly all actives have a fitted effect of over 50% in size
#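 Recovery from NS1-induced slow growth read by OD600 in budding yeast switched to galactose assay medium (pH 6.0, -URA) at 1:100 dilution. Compound 23 nl per well; the matching strain lacking NS1 serves as control.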
# SARS PLP yeast: inhibitors of SARS-CoV papain-like protease in yeast | 0.19% of 330,000 active | Potency, µM (series often up to 32.9 µM), for inactives: at the highest dose activity, positive = growth rescue | AID 485353 | S. cerevisiae expressing SARS-CoV PLpro, growth rescue; control for the full effect not named in the record; active means well fitted rising curve with a large enough effect; inconclusive means small, poorly fitted or top-dose-only effect; inactive means no such curve, though single readings can be large or run the other way; further: 0% is about no effect; nearly all actives have a fitted effect of over 55% in size; growth read by luminescence after 48 h
# 2A StopGo: lowers the luciferase signal of an FMDV 2A StopGo reporter | AID 1159524 | 1.2% of 410,000 active | Potency, µM (doses to about 57.9 µM), inactives show at the highest dose signal change, negative = less light | human cells with a luciferase reporter of 2A StopGo recoding; control for the full effect not named in the record; active = well fitted falling curve with a large enough effect; inconclusive = small, poorly fitted or top-dose-only effect; inactive = no such curve, though single readings can be large or run the other way; tested in HEK293T cells; further: on the % scale 0 is the no-effect control and ±100 the full control effect; nearly all actives have a fitted effect of over 45% in size; luciferase light after 4 h
# Cruzain inh Det: blocks cruzain activity in presence of Triton detergent | 0.43% of 200,000 active | Potency, µM, inactives show max response, negative = inhibition, most hits filed as inhibitors | P25779 | purified cruzain, Z-FR-AMC fluorescence, 0.01% Triton;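 further: plate controls were neutral wells for no effect and buffer without enzyme for full effect; nearly all actives have a fitted effect of over 40% in size; top concentration of the series not given in the record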
#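 Detergent-containing run (0.01% Triton X-100) in acetate buffer pH 5.5 with 5 mM DTT: enzyme at 1.5 nM final, 15 min compound preincubation at room temperature, then 2 uM Z-FR-AMC substrate. Activity taken as 60 s fluorescence increase at 360/450 nm.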
# Marburg entry inh: blocks Marburg virus binding to or entry into cells; Marburg virus pseudotyped entry inhibition, cell reporter; control for the full effect not named in the record; about a third of the inactives were read at about 46 µM; Potency, µM (series often up to 37.8 µM), for inactives: at the highest dose activity change, negative = inhibition, usual class: inhibitors; 1.8% of 300,000 active; AID 540276; active = well fitted inhibition curve with a large enough effect; inconclusive = small, poorly fitted or top-dose-only effect, or effect the other way; inactive = flat fitted curve, though single readings scatter; tested in HEK293 cells; about a fifth of its hits are not listed in these tables; further: on the % scale 0 is the no-effect control and ±100 the full control effect; luciferase read-out
# * hit, by the source's call; ? = inconclusive; . = not tested or not shown; & = joins results of further samples; [ ] = another dose, or the depositor's remark. Unless noted, the call rests on the fitted dose curve; in most records, active means well fitted curve in the direction sought with a large enough effect; inconclusive means small, poorly fitted or top-dose-only effect, or another doubt; inactive means no such curve, though single readings can be large; an effect the other way counts as inactive or inconclusive. Potency means the concentration at half of the fitted maximal effect.
1: O=C(Nc1nncs1)c1ccc(S(=O)(=O)c2ccccc2)cc1
2: CCOC(=O)c1c(C)[nH]c(C)c1S(=O)(=O)N1CCN(c2ccc(F)cc2)CC1
3: Cn1c(SCC(=O)NCCc2ccccc2)nnc1C1CCCCC1
4: CCCC(=O)Nc1ccc(Cl)c(NC(=O)c2ccco2)c1
5: CCOC(=O)N1CCC(NC(=O)c2cnn(-c3ccc(C)cc3)c2-n2cccc2)CC1
6: CCCNC(=O)c1ccc(C2SCC(=O)N2Cc2ccccc2)cc1 (stereo not given)
7: COc1ccc(NC(=O)c2cc3ccccc3cc2OC)cc1OC
8: COc1cc2c(cc1OC)CN(C(=O)CSc1nc3[nH]ncc3c(=O)n1-c1ccccc1)CC2
9: Cc1ccc(N2C(=O)CSC2c2c(F)cccc2Cl)cc1 (stereo not given)
10: COc1ccccc1-c1coc2c(CN3CCCCC3C)c(O)ccc2c1=O (stereo not given)

Compound,1,2,3,4,5,6,7,8,9,10
Cruzain inh noDet,-18%,.,.,1%,-1%,0%,.,?,-3%,.
Lassa entry inh,-1%,.,1%[46.1 µM],?,3%[46.1 µM],?,.,.,10%,.
RE007 growth inh,9%,13%,3%,8%,.,21%,-14%,6%,3%,3%
NS1 inh,-5%,-4%,18%,-13%,.,-3%,0%,-34%,-5%,9%
SARS PLP yeast,2%,3%,-1%,1%,.,-1%,-1%,3%,-3%,11%
2A StopGo,3%,-1%,-14%,-6%,6%,-21%,11%,-20%,?,-1%
Cruzain inh Det,1.0%,.,.,0.2%,-1.0%,-4.3%,.,-1.4%,-0.3%,.
Marburg entry inh,-16%,.,0%[46.1 µM],13%,.,9%,.,-4%,-3%,.

11: O=C1CSC(c2cn(-c3ccccc3)nc2-c2cc3ccccc3oc2=O)N1Cc1cccnc1 (stereo not given)
12: Cc1ccc(NC(=O)c2oc3ccc(S(=O)(=O)N4CCCCC4)cc3c2C)cc1C
13: COc1cccc(CN2CCN(c3ncccn3)CC2)c1
14: COCCN(CC1CCCN(C2Cc3ccccc3C2)C1)C(=O)c1ccc(C(C)=O)cc1 (stereo not given)
15: COc1ccc(Nc2ncc(C(=O)Nc3cccc(Cl)c3)c3ccccc23)cc1
16: CS(=O)(=O)c1ccccc1-c1nnc(NC(=O)COc2ccc(Cl)cc2)o1
17: COc1ccc(C(=O)Cc2cc(OC)c(OC)cc2C(=O)c2ccccc2F)cc1OC
18: CN1C(=O)c2ccc(C(=O)Nc3ccc(Br)cn3)cc2C1=O
19: O=CN1CCCN(Cc2nc(Cc3ccccc3F)no2)CC1
20: O=C(O)CN1C(=O)c2ccc(Oc3cccc4c3C(=O)N(CC(=O)O)C4=O)cc2C1=O

Compound,11,12,13,14,15,16,17,18,19,20
Cruzain inh noDet,?,6%,3%,.,?,.,.,.,.,-3%
Lassa entry inh,?,-14%[46.1 µM],9%,-12%[46.1 µM],9%[46.1 µM],14%,.,.,.,2%
RE007 growth inh,8%,.,5%,-6%,.,-3%,-10%,1%,9%,-6%
NS1 inh,-5%,.,4%,-2%,.,.,-1%,15%,-1%,3%
SARS PLP yeast,-9%,.,0%,-7%,.,0%,4%,1%,0%,4%
2A StopGo,.,?,8%,-4%,-16%,-19%,-12%,0%,11%,15%
Cruzain inh Det,-20%,1.8%,3.8%,.,-13%,.,.,.,.,-0.3%
Marburg entry inh,-20%,.,6%,?,25%[46.1 µM],6%[46.1 µM],.,.,.,5%

# Ordered by molecular weight (lowest first): some entries from above.
7: COc1ccc(NC(=O)c2cc3ccccc3cc2OC)cc1OC
3: Cn1c(SCC(=O)NCCc2ccccc2)nnc1C1CCCCC1
14: COCCN(CC1CCCN(C2Cc3ccccc3C2)C1)C(=O)c1ccc(C(C)=O)cc1 (stereo not given)

Compound,7,3,14
Cruzain inh noDet,.,.,.
Lassa entry inh,.,1%[46.1 µM],-12%[46.1 µM]
RE007 growth inh,-14%,3%,-6%
NS1 inh,0%,18%,-2%
SARS PLP yeast,-1%,-1%,-7%
2A StopGo,11%,-14%,-4%
Cruzain inh Det,.,.,.
Marburg entry inh,.,0%[46.1 µM],?

# Fetched by compound from the entries so far, two records:
19: O=CN1CCCN(Cc2nc(Cc3ccccc3F)no2)CC1
8: COc1cc2c(cc1OC)CN(C(=O)CSc1nc3[nH]ncc3c(=O)n1-c1ccccc1)CC2

Compound,19,8
Cruzain inh noDet,.,?
Lassa entry inh,.,.
RE007 growth inh,9%,6%
NS1 inh,-1%,-34%
SARS PLP yeast,0%,3%
2A StopGo,11%,-20%
Cruzain inh Det,.,-1.4%
Marburg entry inh,.,-4%

# Continued.
21: Cc1nn(C)c(Oc2cccc(C(F)(F)F)c2)c1C=O
22: Cc1sc2nc(-c3ccc(Br)cc3)oc(=O)c2c1C
23: Cc1cccc(CSc2nc3ccncc3n2Cc2ccc(C(=O)O)cc2)c1
24: Cc1ccc(S(=O)(=O)N2CCCCC2)cc1NC(=O)COC(=O)Cc1c(F)cccc1Cl
25: CCOC(=O)COc1cccc2c(=O)n(CC(=O)NCc3ccccc3)ccc12
26: Cn1c(=O)cc(Nc2ccccc2)c2c(=O)n(-c3ccccc3)c(=O)n(-c3ccccc3)c21
27: COc1ccc2[nH]c(C)c(C(=O)CN3CCN(C(=O)c4ccco4)CC3)c2c1
28: COc1ccc(-c2ccc(S(=O)(=O)N3CCCC3)cc2)cc1
29: Cc1noc(NS(=O)(=O)c2ccc(NC(=O)CC(C)C)cc2)c1C
30: O=C(C(Cc1ccccc1)N1C(=O)c2ccccc2C1=O)N1c2ccccc2CCc2ccccc21 (stereo not given)

Compound,21,22,23,24,25,26,27,28,29,30
Cruzain inh noDet,.,.,-13%,-3%,.,.,-5%,.,.,?
Lassa entry inh,8%,?,.,0%,.,20%[46.1 µM],0%,?,16%[46.1 µM],?
RE007 growth inh,5%,5%,.,.,8%,-2%,-8%,5%,6%,-15%
NS1 inh,.,7%,.,5%,-2%,4%,9%,0%,2%,?
SARS PLP yeast,-5%,-3%,.,23%,1%,0%,0%,-2%,-9%,-6%
2A StopGo,-18%,53%[activator],1%,-29%,-10%,-17%,-16%,0%,13%,0%
Cruzain inh Det,.,.,-1.1%,-4.6%,.,.,-4.2%,.,.,-3.2%
Marburg entry inh,1%[46.1 µM],-3%,?,?,.,-9%[46.1 µM],-14%&-14%,-6%[46.1 µM],15%[46.1 µM],?

31: CC(=O)/C(=N\Nc1cccc(Cl)c1)Sc1nnc(-c2ccccc2)n1-c1ccccc1
32: NC(=O)C1CCN(C(=O)c2cc3ccccn3n2)CC1
33: CS(=O)(=O)N1CCC(C(=O)Nc2ccccc2Br)CC1
34: CC(C)OCCCNC(=O)c1ccc(CSc2nc3cccnc3n2Cc2ccccc2)cc1
35: COc1cc(/C=N/NC(=O)CNC(=O)c2ccccc2)ccc1OC(=O)c1cccs1
36: Cc1ccc(C(=O)c2cc3c(cc2N)OCCO3)cc1
37: CN1CCN(S(=O)(=O)c2ccc3c(c2)NC(=O)CS3)CC1
38: O=C(Nc1cc(Cl)ccc1O)c1cc2n(n1)C(C(F)(F)F)CC(c1ccc3c(c1)OCO3)N2 (stereo not given)
39: CCCCCOc1ccc(C)cc1CN(CCCl)CCCl
40: COc1ccc(CCNC(=O)c2cc(-c3ccccn3)nc3c(Cl)cccc23)cc1OC

Compound,31,32,33,34,35,36,37,38,39,40
Cruzain inh noDet,2%,-6%,.,27%,0%,1%,.,-11%,.,.
Lassa entry inh,6%,.,.,2%[46.1 µM],7%,.,.,?,?,-5%
RE007 growth inh,12%,-5%,4%,.,24%,-11%,-12%,-13%,?,7%
NS1 inh,-2%,5%,9%,.,-37%,-3%,19%,-11%,-5%,4%
SARS PLP yeast,-1%,-7%,-1%,.,5%,2%,6%,-5%,-1%,1%
2A StopGo,-9%,-20%,-2%,-22%,-16%,0%,-13%,0%,-4%,?
Cruzain inh Det,-5.0%,1.5%,.,-7.8%,-5.8%,-12%,.,4.1%,.,.
Marburg entry inh,-7%,-3%,.,.,6%,0%,.,?,?,-1%[46.1 µM]

41: CCCC(C)C(=O)Nc1nnc(CCc2ccccc2)s1 (stereo not given)
42: Cc1nn(-c2ccccc2)c(C)c1C(=O)OCC(=O)c1c(N)n(CC(C)C)c(=O)n(C)c1=O
43: CCN1C(=O)[C@H]2[C@@H](c3ccc(C)cc3)N3C(=O)N(c4ccccc4)C(=O)[C@@]3(Cc3ccccc3)[C@H]2C1=O
44: CC[C@]12c3[nH]c4cc(-c5ccco5)ccc4c3CCN1C(=O)[C@@H](CC(=O)NC(C)(C)C)C[C@@H]2C(=O)N1CCN(C(=O)C2CC2)CC1
45: Cc1ccc(-n2ncc3c(=O)n(CC(=O)Nc4cccc(Cl)c4)cnc32)cc1C
46: COc1cccc(CSc2nnc(-c3ccc(F)cc3)o2)c1
47: O=C(NCCCc1ccccc1)c1ccc(F)cc1
48: Cc1ccccc1-c1ncnn1-c1sc2c(c1C#N)CCCCC2
49: CNC(=S)N1CCn2cccc2C1c1ccc(F)cc1 (stereo not given)

Compound,41,42,43,44,45,46,47,48,49
Cruzain inh noDet,.,?,.,.,16µM*,-2%,.,3%,.
Lassa entry inh,-17%[46.1 µM],6.5µM*,.,.,-10%,?,?,21%[46.1 µM],-21%
RE007 growth inh,24%,1%,1%,6%,17%,-15%,52%,.,6%
NS1 inh,1%,10%,-8%,.,5%,-10%,-8%,.,-3%
SARS PLP yeast,21%,-1%,9%,3%,2%,-7%,1%,.,-1%
2A StopGo,-9%,32µM*,-17%,-14%,-15%,43%[activator],88%[activator],-5%,1%
Cruzain inh Det,.,0.8%,.,.,-6.5%,-5.2%,.,-1.7%,.
Marburg entry inh,1%[46.1 µM],?,.,-4%,-16%,1%,?,.,?
